HPGD block: inhibitors of human 15-hydroxyprostaglandin dehydrogenase (HPGD). P15428. purified HPGD, NADH fluorescence kinetic, PGE2 substrate. Potency, µM, for inactives: at the top dose activity change, negative = inhibition, hits mostly inhibitors. 4.3% of 150,000 active. AID 894; active = well fitted inhibition curve with a large enough effect (not every such curve was filed as active); inconclusive = small, poorly fitted or top-dose-only effect, or another doubt; inactive = no such curve, though single readings can be large or run the other way;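 further: top concentration of the series not given in the record; plate controls included wells without enzyme; inactives centre near -10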
Target sequence (P15428 whole entry, looked up): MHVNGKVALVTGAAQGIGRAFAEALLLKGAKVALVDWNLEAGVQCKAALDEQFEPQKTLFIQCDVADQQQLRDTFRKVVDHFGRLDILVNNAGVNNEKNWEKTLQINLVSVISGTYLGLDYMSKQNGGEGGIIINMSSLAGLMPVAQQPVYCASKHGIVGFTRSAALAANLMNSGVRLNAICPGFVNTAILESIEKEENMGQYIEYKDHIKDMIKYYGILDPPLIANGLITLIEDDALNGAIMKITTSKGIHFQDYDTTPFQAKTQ
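NADH formation kinetics: reaction with 30 uM PGE2 and 1 mM NAD+ (final), 20 nM enzyme, Tris-HCl pH 8 with Tween 20, after 15 min compound preincubation at room temperature. Fluorescence change, last versus first of five reads.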
The depositor's hits bear a star; ? = inconclusive; & = joins results of further samples. On the % scale 0 is the no-effect control and ±100 the full control effect; potency means the concentration at half of the fitted maximal effect. An excerpt. The share of hits here may be higher or lower than overall.

entry	structure	HPGD block
1	CCC(C)[C@H](NC(=O)NC1CCN(Cc2ccccc2)CC1)C(=O)OC (some centres undefined)	-0.8%
2	N#Cc1ccc(N2C(=O)[C@@H]3C(C(=O)c4ccc5ccccc5n4)=NN[C@@H]3C2=O)cc1	-19.9%
3	O=C(c1ccccc1)N1CCN(C2C3CC4CC(C3)CC2C4)CC1 (centres undefined)	-11.4%
4	Cc1cccc(N(C(=O)Nc2ccccc2)C2=NCC(C)S2)c1 (centres undefined)	17.8µM*
5	CCN(CC)S(=O)(=O)c1cccc(-c2n[nH]c(=S)n2/N=C/c2ccc(C(=O)OC)cc2)c1	6.31µM*
6	CCOC(=O)C1(P(=O)(c2ccccc2)c2ccccc2)CCC1	2.6%
7	CN=c1scc(-c2cc(OC)ccc2OC)n1/N=C/c1c(C)[nH]c2ccccc12	-25.0%
8	COc1ccc(OCCCC(=O)Nc2ccc3c(c2)OCO3)cc1	-3.9%
9	Cc1cc(NC(=O)/C=C/c2cccc(F)c2)n(-c2nc3ccccc3[nH]2)n1	0.2%
10	Cc1cc2cc(CN(Cc3ccco3)S(=O)(=O)c3c(C)ccc4nsnc34)c(=O)[nH]c2cc1C	-28.4%
11	O=C(COC(=O)c1ccc(N2CCOCC2)c([N+](=O)[O-])c1)Nc1ccc2c(c1)OCO2	-12.7%
12	COc1cccc2cc(C(=O)N3CCN(c4ccc(C)cc4C)CC3)c(=O)oc12	-22.4%
13	CC(C)(C)NC(=O)CSc1nnc(-c2ccncc2)o1	-4.5%
14	FC(F)(F)c1cc(C(F)(F)F)c2ccc(N3CCN(c4ccccc4)CC3)nc2n1	-8.9%
15	Cc1ccc(C(=O)/C=C/NCc2ccc(F)cc2)cc1	-24.2%
16	Cn1c(=O)c2c(nc(SCCN3CCOCC3)n2Cc2cccc3ccccc23)n(C)c1=O	-7.3%
17	NC(=O)CSc1nc2cc3c(cc2c(=O)n1CCCC(=O)NCc1ccc2c(c1)OCO2)OCO3	-2.8%
18	Nc1c(C(=O)C2CC2)sc2nc(-c3cccs3)cc(C(F)(F)F)c12	?
19	Nc1ccc(Nc2ccccc2)c(Cl)c1	-17.7%
20	CCOC(=O)N/N=C\C=C\c1ccc2c(c1)OCO2	?
21	O=C(COc1ccccc1)N1CCN=C1c1ccccc1	-4.3%
22	CCOC(=O)COc1ccc(S(=O)(=O)NCc2cccnc2)cc1	1.7%
23	O=C(CSc1nnc(C2COc3ccccc3O2)o1)N1CCCc2ccccc21 (centres undefined)	-4.8%
24	c1ccc(CNc2nc3ccccc3[nH]2)cc1	-13.3%
25	O=C(C1CCN(S(=O)(=O)c2cccc3nsnc23)CC1)N1CCn2c1nc1ccccc12	-15.2%
26	CCNC(=S)N/N=C/c1sc(N2CCCCC2)nc1-c1cccs1	-25.9%
27	CSc1nc2[nH]ncc2c(=O)[nH]1	2.1%
28	CCOC(=O)CSc1nc2cc(C(=O)OC)ccc2c(=O)n1CCN1CCOCC1	-5.6%
29	Cc1ccc(/C=N/NC(=O)CNC(=O)COc2ccccc2)cc1	-9.1%
30	CNC(=O)C1CCN(C(=O)c2ccc(-c3ccccc3)cc2)CC1	-11.7%
31	N#Cc1c2c(c(Nc3ccc(O)cc3)n3c1nc1ccccc13)CCC2	-8.3%
32	COC(=O)N[C@@H](c1cccc(F)c1)C(C(C)=O)C(=O)OC (some centres undefined)	-8.7%
33	COc1ccc(-n2c(Cc3cc(=O)[nH]c(=O)[nH]3)nnc2SCC(=O)N2CCCC2)cc1	-12.5%
34	CCC(C)C(=O)Nc1ncc2c(n1)CC(c1cccs1)CC2=O (centres undefined)	-2.1%
35	COc1cc(CNc2ccc(CNc3ncn[nH]3)cc2)cc(Cl)c1OCc1ccccc1	-14.0%
36	N#C/C(=C\c1cccc([N+](=O)[O-])c1)c1nnc2n1CCCCC2	31.6µM*
37	COCCOC(=O)C1=C(C)Nc2nc(C)nn2C1c1ccc(F)cc1 (centres undefined)	-12.9%
38	CN1CCCCc2c1[nH]c1ccccc1c2=O	?
39	COC(=O)Cc1c(C)nc2nc(-c3ccc(Cl)cc3)[nH]n2c1=O	-15.8%
40	O=C(CC1SC(=Nc2ccccc2)N(CCc2ccccn2)C1=O)Nc1ccc(F)cc1 (centres undefined)	-17.1%
41	CC(C)(C)OC(=O)NCCc1nnc(SCc2ccc(Cl)cc2Cl)o1	?
42	COCCCn1c(SCC(=O)Nc2ccc3c(c2)OCCO3)nnc1-c1ccoc1C	-12.3%
43	O=C(CSc1ccccc1)NCc1ccccn1	-14.9%
44	O=C(COC(=O)c1cccnc1Nc1ccccc1F)NC1CC1	-25.0%
45	NC(=O)c1ccccc1NC(=O)NC1CCCCC1	-12.1%
46	CC(=O)Nc1ccc(S(=O)(=O)c2ccc(N)cc2)cc1N	-8.4%
47	Cc1cc(OC(=O)c2cc(F)c(F)cc2Cl)nc(C)n1	-8.7%
48	O=C(Cn1cnc2ccccc21)NCc1ccccc1	-0.4%
49	O=c1c(O)c(-c2ccc(O)cc2O)oc2cc(O)cc(O)c12	-24.4%&-15.9%
50	COc1cc(NS(=O)(=O)c2ccc(Cl)cc2)c(C(=O)O)cc1OC	-13.5%
51	NC1C(O)OC(CO)[C@@H](O)[C@@H]1O[C@H]1O[C@@H](C(=O)O)C(O)C(O)C1O (some centres undefined)	-4.2%
52	O=C1C2CC=C(Cl)CC2C(=O)N1CN(Cc1ccco1)CN1C(=O)C2CC=C(Cl)CC2C1=O (centres undefined)	-9.5%
53	Cc1cc(SCc2cc(=O)[nH]c3ccccc23)nc2ccccc12	2.7%
54	CC(C)CC(NC(=O)OC(C)(C)C)C(=O)NC(C(=O)N1CCCC1C(N)=O)C(C)C (centres undefined)	-12.2%
55	CCOC(=O)c1ccc(NC(=O)COc2cc(=O)n(CC)c3ccccc23)cc1	-10.3%
56	CNC(=O)[C@@H]1C[C@H]1[C@@H](NC(=O)CNC(=O)OCc1ccccc1)c1ccccc1	-7.4%
57	CCn1c(CNC(=O)COc2ccc(C(C)C)cc2)nnc1SCC(=O)Nc1cc(F)ccc1C	-6.0%
58	CN(Cc1cccc2ccccc12)Cc1cccc2ccccc12	-4.7%
59	O=c1oc2ccccc2cc1-c1csc(Cc2nc(-c3ccc(Cl)cc3)cs2)n1	-18.1%
60	Cc1cc(Cn2ccnc2)c(C)cc1Cn1ccnc1	-4.3%

Next part
entry	structure	HPGD block
61	O=C(C1CCCN(S(=O)(=O)c2cnc[nH]2)C1)N(CCc1ccccc1)Cc1ccccc1 (centres undefined)	-12.4%
62	O=C(CCCC(=O)OCC(F)(F)C(F)F)Nc1nccs1	-2.5%
63	Cc1[nH]c2ccccc2c1/C=N/Nc1nc(N2CCCCC2)nc(N2CCCCC2)n1	-14.4%
64	CCOc1ccc(NC(=O)C(c2ccccn2)N(C(=O)CCl)c2ccc(F)cc2)cc1 (centres undefined)	1.0%
65	CCCN(CC(=O)Nc1c(C)cccc1CC)C(=O)SCC	-2.8%
66	CCc1cc(C(=O)N=Nc2c(O)[nH]c3ccc([N+](=O)[O-])cc23)c2ccccc2n1	-15.2%
67	CCOC(=O)C1=C(Cn2cnc3ccccc32)NC(=O)NC1c1ccc(Cl)cc1 (centres undefined)	-4.8%
68	Cc1onc(-c2c(F)cccc2Cl)c1C(=O)N[C@@H]1C(=O)N2[C@H]1SC(C)(C)[C@H]2C(=O)O	-6.4%
69	CCOC(=O)C1=C(O)/C(=C\c2ccc(CNS(=O)(=O)c3ccc(Br)cc3)o2)N=C1C	-9.3%
70	NC(=O)c1cc(N2C(=O)C=CC2=O)ccc1Cl	7.94µM*
71	Cc1cc2c(cc1C)N(CC(=O)N1CCCC1)C(=O)CC(c1ccccc1)=N2	-12.3%
72	O=C(CN1CCC(O)(c2ccc(F)cc2)CC1)NCc1ccc(F)cc1	-13.3%
73	Cc1c(NC(=O)C2CCCNC2=O)c(=O)n(-c2ccccc2)n1C (centres undefined)	-9.8%
74	COc1ccc(NC(=O)c2n[nH]c(=O)c3ccccc23)cc1S(=O)(=O)N1CCCCC1	-8.1%
75	Cc1cc(C)n(CCc2nc3c4ccccc4n(CC#N)c(=O)n3n2)n1	-9.2%
76	CC1=CN2C(=N)/C(=C/c3cn(CCCOc4ccccc4C)c4ccccc34)C(=O)N=C2S1	?
77	CC1CCc2sc(C(=O)N/N=C/c3ccc([N+](=O)[O-])cc3)cc2C1 (centres undefined)	-11.3%
78	COC(=O)C1=C(N)N(c2ccccc2F)C2=C(C(=O)CC(C)(C)C2)C1c1ccc(OC)c(OC)c1 (centres undefined)	-5.5%
79	CCOc1cccc(NC(=O)C2CC(=O)NC(=Nc3ccccc3)S2)c1 (centres undefined)	4.8%
80	COc1ccc(-c2cc(=O)oc3cc(OCC(C)=O)ccc23)cc1	31.6µM*
81	N#Cc1ccccc1CN1C(=O)S/C(=C/c2cccn2-c2ccc(C(=O)O)cc2)C1=O	28.2µM*
82	COC(=O)CCc1sc(Nc2ccccc2)nc1-c1ccc(OC)cc1	-28.4%
83	c1coc(-c2nc3nc4ccccc4n3nc2-c2ccco2)c1	-14.3%
84	Cn1c(-c2ccccc2)c(CCO)c2ccccc21	?
85	C/C=C/c1ccccc1OCc1ccc(C(=O)OC)o1	-2.9%
86	CC1CC(C)(C)N(C(=O)CSc2ccc(-c3ccc(F)cc3)nn2)c2ccccc21 (centres undefined)	-25.3%
87	CCn1nnc(-c2ccccc2NS(=O)(=O)c2ccc(S(=O)(=O)N(C)C3CCCCC3)cc2)n1	-17.9%
88	CN1CCN(CC(=O)O)CC1	-6.8%
89	CC(=O)Nc1ccc(C(=O)NC2CCCC2)cc1	?
90	COc1ccc(C(C(=O)OC(C)CN(C)C)c2ccccc2)cc1 (centres undefined)	-8.8%

Shown field by field: part of the list above.
9) Cc1cc(NC(=O)/C=C/c2cccc(F)c2)n(-c2nc3ccccc3[nH]2)n1
  HPGD block: 0.2%
10) Cc1cc2cc(CN(Cc3ccco3)S(=O)(=O)c3c(C)ccc4nsnc34)c(=O)[nH]c2cc1C
  HPGD block: -28.4%

As entered above.
`N#Cc1ccccc1CN1C(=O)S/C(=C/c2cccn2-c2ccc(C(=O)O)cc2)C1=O` – HPGD block: 28.2µM*
`CCOc1cccc(NC(=O)C2CC(=O)NC(=Nc3ccccc3)S2)c1` (centres undefined) – HPGD block: 4.8%
`CN1CCN(CC(=O)O)CC1` – HPGD block: -6.8%

Going on with the list.
entry	structure	HPGD block
91	COCCNc1nc(-c2cccc(OC)c2)nc2ccccc12	-15.7%
92	O=C(c1cccnc1)N(Cc1ccccc1)C1(C(=O)Nc2ccccc2)CCCCC1	5.4%
93	CN1CCN(/C(=N\S(=O)(=O)c2ccc(F)cc2)c2ccccc2)CC1	-2.5%
94	COc1ccc(C(=O)CSc2cc(C)nc(SCC(=O)c3ccc(C)cc3)n2)cc1	-17.9%
95	O=C(Cn1cc([N+](=O)[O-])cn1)Nc1ccn(Cc2c(F)c(F)c(F)c(F)c2F)n1	-4.0%
96	COc1ccccc1NC(=S)NNC(=O)c1ccccc1Br	-11.4%
97	Cc1ccc(NC(=O)C(c2ccccc2)C2CCCC2)cc1 (centres undefined)	-10.6%
98	O=C(CCCOc1ccccc1)N1CCN(S(=O)(=O)c2cccs2)CC1	2.2%
99	Cc1cccc(/C=N\Nc2nnc(-c3ccccc3)c(=O)[nH]2)c1	-11.2%
100	Cc1cc(O)c2c(c1O)C(=O)C(O)=C(O)C2=O	?
101	Cc1ccc(F)cc1NC(=O)Cc1nn(C)c(=O)c2ccccc12	-9.0%
102	O=C(COC(=O)c1ccc2c(c1)OCCO2)Nc1cc(Cl)ccc1Cl	-11.4%
103	CN(C)S(=O)(=O)c1ccc(Oc2ccccc2)cc1	-11.0%
104	COC(=O)CC1COc2ccccc2N1C(=O)c1ccc(Cl)cc1 (centres undefined)	-0.7%
105	C=CCNc1nc(Nc2ccc(OC)cc2)nc(OC)n1	-8.5%
106	CCOC(=O)Cc1cc(=O)n2[nH]c(-c3ccccc3)cc2n1	?
107	COc1ccc(NC(=O)c2ccco2)c(OC)c1	-8.1%
108	N#Cc1cn(-c2ccccc2)nc1C(=O)c1ccccc1	-9.8%
109	CSc1nnc(-c2ccccc2N=Cc2c(C)[nH]n(-c3ccccc3)c2=O)c(=O)[nH]1	-4.0%
110	Nc1nc2[nH]c(=O)cnc2c(=O)[nH]1	-21.4%
111	COc1ccc(NC(=O)CC2Oc3ccccc3NC2=O)cc1 (centres undefined)	-4.2%
112	Cc1nc2ccc(S(=O)(=O)NC(C(=O)N3CCCC3)C(C)C)cc2s1 (centres undefined)	-5.6%
113	O=C(N/N=C/c1ccc[nH]1)c1ccccc1[N+](=O)[O-]	-6.1%
114	Cc1ccc2nc(NC(=O)c3ccc(Cn4cc(Cl)cn4)o3)sc2c1	?
115	N#CCCN(Cc1cccnc1)C(=O)Nc1ccccc1	10.5%
116	c1cncc(N=c2scc(-c3cccc4ccccc34)n2CCCn2ccnc2)c1	-21.5%
117	N#Cc1c(NC(=O)C2CCCO2)sc2c1CCCCCC2 (centres undefined)	?
118	Cc1cccc(CN2CCc3c(OCC(=O)NCc4ccco4)cccc3C2=O)c1	-29.9%
119	COc1cccc(CNCCNC(=O)c2nonc2N)c1	-5.7%
120	O=C1c2cccc(OCc3ccc(F)cc3)c2CCN1Cc1ccc(F)cc1	-17.7%
121	CCc1ccc2[nH]c(=O)c(C(c3nnnn3Cc3ccco3)N3CCC(C)CC3)cc2c1 (centres undefined)	?
122	CC1(C)Cc2nc3oc4c(=S)nc[nH]c4c3cc2CO1	28.2µM*
123	CCOc1ccccc1NC(=S)N1C2CCC1CC(NC(=O)NC13CC4CC(CC(C4)C1)C3)C2 (centres undefined)	-5.7%
124	Cc1cccc(NC(=O)Nc2cccc(C)n2)n1	-7.5%
125	O=C(NC(=S)N1CCN(c2ccc(Cl)cc2[N+](=O)[O-])CC1)c1cccs1	-26.6%
126	Clc1cc(Br)ccc1OCCn1ccnc1	-15.6%
127	Oc1[nH]c2ccccc2c1/C=N/c1nccs1	-9.2%
128	N#Cc1ccccc1	-0.2%
